Methyltransferases = Primary Screen for Target Class Profiling of Small Molecule Inhibitors of Methyltransferases | purified enzyme, MTase-Glo SAH luminescence; stronger effect = lower value | calls only at 40 µM | 3.9% of 25,000 active; active = -50% or lower on at least one of six enzymes; inconclusive = the cases between; inactive = as a rule above -30% on all six;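 also: enzymes were COMT GAMT GNMT HNMT NNMT and PNMT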
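Each enzyme was assayed with SAM and its substrate. SAH formation detected by MTase-Glo luminescence; single-point 40 uM screen[…].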
Calls only; i = inactive; ? = inconclusive; + = active, no number. % is scaled to controls: 0 for no effect and ±100 for the full control effect.

SMILES	Methyltransferases
CSCCC(=O)N1CCc2c(ncnc2N2CCOCC2)C1	i
Cc1nn(C)c(C)c1CCCN(C)C(=O)c1ccc2c(c1)C(O)CCCCCN2C (stereo not drawn)	i
Cc1ccc2c(c1)c(-n1cccc1)c1n2CC(C)(C(=O)NC2CCCCC2)N(Cc2ccco2)C1=O (stereo not drawn)	i
COc1ccc(-c2nc(-c3ccc(-c4cccc(Cl)c4)o3)[nH]c2-c2ccc(OC)cc2)cc1	?
O=C(CNC(=O)c1ccc(-c2cccc(C(F)(F)F)c2)cc1)NCC(F)(F)F	i
COc1ccc2cc1Nc1ccc(cc1)C[C@H](NCc1ccc(C)o1)C(=O)N(C)[C@H](C(=O)NCCC(C)C)C2	i
CCCn1c(=O)c2ccccc2n2c(=O)n(Cc3ccc(F)cc3)nc12	i
CN(CCCN1C(=O)c2ccc(-c3ccco3)n2CC1(C)C(=O)NC1CCCCC1)C1CCCCC1 (stereo not drawn)	i
CCOc1ccc(N2C(=O)c3cc(-c4ccccc4)nn3CC2(C)C(=O)NCc2ccccc2)cc1 (stereo not drawn)	i
Cc1ccc(N2C(=O)c3cc4occc4n3CC2(C)C(=O)NC2CCCCCC2)c(C)c1 (stereo not drawn)	i
CNc1ncnc2c1ncn2[C@H]1C[C@H](OP(=O)(O)O)[C@@H](COP(=O)(O)O)O1	i
COc1ccc(Cl)cc1N1C(=O)CSc2c(c3ccccc3n2C)C1C(=O)NCc1ccccc1 (stereo not drawn)	i
CCC(C)NC(=O)c1ccc2c(=O)n(C(C)C)c3nn(CC(=O)c4cc(C)ccc4C)c(=O)n3c2c1 (stereo not drawn)	i
CC(C)OCCCNc1nc2c(S(=O)(=O)c3ccccc3)nnn2c2ccccc12	i
CCCn1c(=O)c2ccc(Cl)cc2n2c(=O)n(CC(=O)c3ccc(C)cc3)nc12	i
CCc1ccc(CNC(=O)c2ncn3c2C(=O)N(C2CC2)C(C)(C(=O)NCc2ccccc2Cl)C3)cc1 (stereo not drawn)	i
COc1ccc(CN2CCc3ncc(C(=O)NCc4ccc5c(c4)OCO5)n3CC2)cn1	i
Cc1ccc(CN2CC(=O)N(Cc3cccc(F)c3)c3ccccc3S2(=O)=O)cc1	i
Cc1cccc(-c2cccc(CN3CCC(N[S+](=O)([O-])c4c(C)noc4C)CC3)c2)c1	i
O=C(CCc1nnc2n(Cc3ccc(F)cc3)c(=O)c3ccccc3n12)N1CCc2ccccc2C1	i
COc1ccc(OC)c(CCN2C(=O)c3cc4ccccc4n3CC2(C)C(=O)NC2CCCC2)c1 (stereo not drawn)	i
Cc1nc(N2CCC(C(=O)NC3CCC(C)CC3)CC2)cc(C(F)(F)F)n1 (stereo not drawn)	i
CCc1cc(=O)[nH]c(N2CCOCC2)n1	i
O=c1[nH]c([C@@H]2CCCN2)nc2c1oc1ccc(Cl)cc12	?
NCc1ccc(Oc2ccccc2)cc1	?
SMILES	Methyltransferases
COc1ccccc1CNC(=O)C1(C)Cn2nc(-c3ccccc3)cc2C(=O)N1Cc1ccccc1F (stereo not drawn)	i
CN1CCCCCC(O)c2cc(C(=O)N3CCN(c4ccc(F)cc4)CC3)ccc21 (stereo not drawn)	i
CCCCNc1nc2c(-c3ccc(C)cc3)nnn2c2ccccc12	i
Cc1cc(C)n(CCC(=O)N2CCC(C3CCN(S(C)(=O)=O)CC3)C2)n1 (stereo not drawn)	i
COc1cc(OC)cc(C(=O)NCC2CCCN(C(=O)CCNC(C)=O)C2)c1 (stereo not drawn)	i
COc1cc(F)c(F)c(Nc2ccc(I)cc2F)c1NS(=O)(=O)C1(C[C@H](O)CO)CC1	?
O=S(=O)(c1cccc(F)c1)N1CC[C@@H]2COCCN(Cc3ccccc3)[C@@H]2C1	i
O=C(NCCCc1ccccc1)c1ccc2c(=O)nc3c(-c4ccccc4)n[nH]n3c2c1	i
CN(C(=O)c1cn2c(-c3ccc(C(F)(F)F)cc3)cnc2cn1)c1ccc(C#N)cc1	?
CC(=O)O[C@H]1[C@H](O[C@H]2CC[C@]34C[C@]35CC[C@]3(C)[C@@H]([C@@]6(C)CC[C@@H](C(C)(C)O)O6)[C@@H](O)C[C@@]3(C)[C@@H]5C[C@H](O[C@@H]3O[C@H](CO)[C@@H](O)[C@H](O)[C@H]3O)[C@H]4C2(C)C)OC[C@@H](OC(C)=O)[C@@H]1O	i
COc1ccc(CN2C(=O)c3cc4ccccc4n3CC2(C)C(=O)NCCC(C)C)cc1 (stereo not drawn)	i
COCc1cc(C[C@@H]2CC[C@H](O)[C@@H](CNCc3ccc(Cl)cc3)O2)no1	i
CCC[C@@H]1CN(C(=O)CCn2cc(Cl)cn2)C[C@H]1C(=O)O	i
COc1cccc(CNC(=O)Nc2nc(-c3ccncc3)cs2)c1	?
COc1cccc(OC)c1-c1nc(C(=O)N[C@@H](CC(C)C)C(=O)O)cn1-c1ccnc2cc(Cl)ccc12	i
Cc1ccc(S(=O)(=O)N2CCc3nc(N(C)Cc4cccnc4)[nH]c(=O)c3CC2)cc1	i
COc1ccccc1CNc1nc2c(S(=O)(=O)c3cc(C)ccc3C)nnn2c2ccccc12	i
O=C(NC[C@H]1OC[C@@H](NCc2ccccc2O)[C@@H]1O)c1ccc(F)cc1	i
CN(C)CC(=O)N1CCC[C@@H](n2nc(-c3ccc(Oc4ccccc4)cc3)c3c(N)ncnc32)C1	?
CC(C)Cn1c(CNC(=O)OC(C)(C)C)nc2cccnc21	i
CSc1ccc(-c2cccc(C(=O)NCC(=O)N3CCOCC3)c2)cc1	i
CNC(=O)Cn1ccc2cc(S(=O)(=O)N3CCCCC3)ccc21	i
COc1nccc(N2CCC(CC(=O)NCCCN3CCCC3=O)CC2)n1	i
CC(C)CNC(=O)c1ccc2c(=O)n(C(C)C)c3nn(CC(=O)Nc4ccccc4)c(=O)n3c2c1	i
CCC(C(=O)NCc1cccc(Cl)c1)n1ccc2cc(S(=O)(=O)N3CCCCC3)ccc21 (stereo not drawn)	i

A second format for some results above:
Molecule,Methyltransferases
CN1CCCCCC(O)c2cc(C(=O)N3CCN(c4ccc(F)cc4)CC3)ccc21 (stereo not drawn),i
CN(C(=O)c1cn2c(-c3ccc(C(F)(F)F)cc3)cnc2cn1)c1ccc(C#N)cc1,?
COc1cc(F)c(F)c(Nc2ccc(I)cc2F)c1NS(=O)(=O)C1(C[C@H](O)CO)CC1,?

The listing picks up with the 2 entries that preceded the break.
SMILES	Methyltransferases
CC(C)CNC(=O)c1ccc2c(=O)n(C(C)C)c3nn(CC(=O)Nc4ccccc4)c(=O)n3c2c1	i
CCC(C(=O)NCc1cccc(Cl)c1)n1ccc2cc(S(=O)(=O)N3CCCCC3)ccc21 (stereo not drawn)	i
CC(C)c1c(-c2cnn(C(C)(C)C)c2)nc2c(C#N)c[nH]n2c1=O	?
COCCCNC(=O)CCc1nnc2n(Cc3ccccc3Cl)c(=O)c3ccccc3n12	i
O=C(O)CC1CCC(c2ccc(-c3ccc(Nc4ccc(C(F)(F)F)nc4)cn3)cc2)CC1 (stereo not drawn)	+
O=C1CCC[C@@H]2[C@H]3CCC[N+]4([O-])CCC[C@@H](CN12)[C@@H]34 (stereo partly drawn)	?
CCCN1C(=O)c2c(C(=O)NCCc3ccc(Cl)cc3)ncn2CC1(C)C(=O)NCc1ccc(OC)cc1 (stereo not drawn)	i
CC(C)OCCCNC(=O)c1cc2n(n1)CC(C)(C(=O)NCc1ccc(F)cc1)N(C)C2=O (stereo not drawn)	i
COc1cc(O)cc2c1C(=O)OC(C)CCCCCCC2 (stereo not drawn)	i
Cc1ccc(Cn2c(=O)c3ccc(C(=O)NC(C)C)cc3n3c(=O)[nH]nc23)cc1	i
O=S(=O)(NCCn1c(CCc2ccccc2)nc2ccccc21)c1ccccc1	i
CCCCNc1nc2c(-c3ccc(Cl)cc3)nnn2c2ccccc12	i
C=CCNc1nc(C)nc2c1CCN(C(=O)Cc1nnc(N)s1)CC2	i
Cc1ccc(CCNC(=O)c2cc3n(n2)CC(C)(C(=O)NCc2ccc(C)cc2)N(C)C3=O)cc1 (stereo not drawn)	i
Cc1ccccc1CNC(=O)C(C)n1ccc2cc(S(=O)(=O)N3CCCCC3)ccc21 (stereo not drawn)	i
CC(=O)N1CCC(C2CCN(C(=O)c3nn(C)c4ccccc34)C2)CC1 (stereo not drawn)	i
O=C(NC1CCN(C(=O)c2ccc(-c3cncnc3)cc2)CC1)c1ccccc1F	i
CSc1ccc(CNC(=O)c2cc3n(n2)CC(C)(C(=O)NC2CCCC2)N(C)C3=O)cc1 (stereo not drawn)	i
Cc1cc(C)c(NC(=O)c2ncn3c2C(=O)N(C2CC2)C(C)(C(=O)NCc2ccc(F)cc2)C3)c(C)c1 (stereo not drawn)	i
CS(=O)(=O)N1Cc2ccccc2CC2(CCCN2Cc2cccnc2)C1 (stereo not drawn)	i
Cc1ccc(N2C(=O)CSc3c(c4ccccc4n3C)C2C(=O)NCCC(C)C)cc1C (stereo not drawn)	i
Cc1ccc(CNC(=O)C2(C)Cn3cnc(C(=O)Nc4ccccc4C)c3C(=O)N2C2CC2)cc1 (stereo not drawn)	i
CCCn1c(=O)c2ccc(C(=O)NC(C)CC)cc2n2c(SCC(=O)c3ccc(OC)cc3)nnc12 (stereo not drawn)	i
CC(C)Cn1c(=O)c2ccc(C(=O)NC3CCCC3)cc2n2c(SCC(=O)NC3CCCC3)nnc12	i
CCN(CC)c1cc(CCC(=O)N2CCN(c3cccc(OC)c3)CC2)ccn1	+
CN(CC1CCOCC1)C(=O)NCc1ccco1	i
CC(C)CCn1c(=O)c2ccccc2n2c(=O)n(Cc3cccc(Cl)c3)nc12	i
SMILES	Methyltransferases
CC(=O)OC1CCC2(C)C(CCC3(C)C2CC=C2C4CC(C)(C)CCC4(C)CCC23C)C1(C)C(=O)O (stereo not drawn)	i
CN1CCc2cc(Cl)c(O)cc2[C@@H](c2ccccc2)C1	i
Cc1cccc(CSc2nnc3n(Cc4ccccc4)c(=O)c4ccc(C(=O)NC(C)C)cc4n23)c1	i
COCC(=O)NC[C@H]1CCN(Cc2scnc2C)C[C@H]1N(C)C	i
COC(=O)[C@H](NC(=O)c1cc(-c2ccccc2)nc2ccccc12)c1ccccc1	i
O=C(NCCN1C(=O)C2(CCCCC2)C1c1ccccc1)NCc1ccccc1 (stereo not drawn)	i
O=S(=O)(O)c1ccc2cc(N=Nc3cc(S(=O)(=O)O)c4cccnc4c3O)ccc2c1	i
COc1cccc(CNC(=O)C(C)n2ccc3cc(S(=O)(=O)N4CCCCC4)ccc32)c1 (stereo not drawn)	i
CC1(C(=O)NC2CCCCC2)Cn2c(cc3ccccc32)C(=O)N1Cc1cccc(Cl)c1 (stereo not drawn)	i
CC1=C(/C=C/C(C)=C\C=C\C(C)=C/C(=O)O)C(C)(C)CCC1	?
CC1(C(=O)NC2CCCCC2)Cn2c(nc3ccccc32)C(=O)N1Cc1cccc(Br)c1 (stereo not drawn)	i
CN(C)C[C@@H]1CN(Cc2ccccn2)C[C@H]1NC(=O)c1n[nH]c2ccccc12	i
O=C(CN1C2=NCCN2c2ccccc21)c1ccc(-c2ccccc2)cc1	?
c1ccc(CN(Cc2nc(-c3ccccn3)no2)CC2CC2)cc1	i
Cn1c(=O)c(F)c(Nc2ccc(I)cc2F)c2c(=O)n(CC(O)CO)cnc21 (stereo not drawn)	i
CCc1cccc(NC(=O)[C@@H]2CN(S(C)(=O)=O)C[C@H]2c2ccncc2)c1	i
COc1ccc(OC)c(Nc2nc3c(S(=O)(=O)c4ccc(C)cc4)nnn3c3ccccc23)c1	i
c1ccc2c(CCNc3ccc(Nc4ccncc4)cc3)c[nH]c2c1	+
Cc1ccc(NC(=O)Cn2nc3n(C(C)C)c(=O)c4ccc(C(=O)NCC(C)C)cc4n3c2=O)cc1F	i
N#Cc1cc(-c2n[nH]c(-c3ccncc3)n2)ccn1	i
CCCN1C(=O)c2c(C(=O)NCCc3ccc(C)cc3)ncn2CC1(C)C(=O)NCCC(C)C (stereo not drawn)	i
CC(C)Cn1c(=O)c2ccc(C(=O)NC3CCCC3)cc2n2c(=O)n(Cc3ccc(Cl)cc3)nc12	i
Cc1ccccc1CN1C(=O)c2nc3ccccc3n2CC1(C)C(=O)NC1CCCCCC1 (stereo not drawn)	i
COCC(=O)N1CCc2cc(-c3csc(NC(=O)c4cc(OC)cc(OC)c4)n3)ccc21	i
CCOC(=O)c1cc2n(n1)CC(C)(C(=O)NCCC(C)C)N(Cc1cccc(OC)c1)C2=O (stereo not drawn)	i

Arranged by molecular weight (rising): part of the list above.
SMILES	Methyltransferases
CC1=C(/C=C/C(C)=C\C=C\C(C)=C/C(=O)O)C(C)(C)CCC1	?
CCc1cccc(NC(=O)[C@@H]2CN(S(C)(=O)=O)C[C@H]2c2ccncc2)c1	i
COc1cccc(CNC(=O)C(C)n2ccc3cc(S(=O)(=O)N4CCCCC4)ccc32)c1 (stereo not drawn)	i
Cn1c(=O)c(F)c(Nc2ccc(I)cc2F)c2c(=O)n(CC(O)CO)cnc21 (stereo not drawn)	i
Cc1ccc(NC(=O)Cn2nc3n(C(C)C)c(=O)c4ccc(C(=O)NCC(C)C)cc4n3c2=O)cc1F	i

Next section
SMILES	Methyltransferases
CCCCc1cc(C[C@H]2CNCC[C@H]2CC(=O)N2CCC(Cc3ccccc3)CC2)no1	i
COCCCN1C(=O)c2ccc(-c3ccccc3)n2CC1(C)C(=O)NC1CCCCCCC1 (stereo not drawn)	i
CCCn1c(=O)c2ccc(Cl)cc2n2c(SCC(=O)Nc3ccc(C)cc3Cl)nnc12	i
O=C(c1ccc(F)cc1)N1CCN(c2nc3ncccc3o2)CC1	i
CCc1ccc(S(=O)(=O)c2nnn3c2nc(NC2CCCC2)c2ccccc23)cc1	i
Cc1cc2ncc(C(=O)N3CCOCC3)cn2n1	i
Cc1ccc(NC(=O)CSc2nnc3n(Cc4ccc(F)cc4)c(=O)c4ccccc4n23)cc1	i

Molecules listed so far that contain a cyano group, in the order listed:
SMILES	Methyltransferases
CN(C(=O)c1cn2c(-c3ccc(C(F)(F)F)cc3)cnc2cn1)c1ccc(C#N)cc1	?
CC(C)c1c(-c2cnn(C(C)(C)C)c2)nc2c(C#N)c[nH]n2c1=O	?
N#Cc1cc(-c2n[nH]c(-c3ccncc3)n2)ccn1	i

Assay outcomes (PubChem BioAssay)

Only part of the results is shown; rates above refer to the full screens.
